WNV protease inh – inhibitors of West Nile virus NS2B-NS3 protease | 65,000 tested, 0.18% active | WNV NS2B-NS3 protease, fluorogenic substrate Ex360/Em465; active compounds read low | P06935 | AID 577 | z-score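 (tested at a level between 10 and 100 µM)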;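 active means z-score at -3 or under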;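 further: score is relative to mean and spread of the compound wells of a plate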
Target sequence (P06935 1371-1501 limits assumed): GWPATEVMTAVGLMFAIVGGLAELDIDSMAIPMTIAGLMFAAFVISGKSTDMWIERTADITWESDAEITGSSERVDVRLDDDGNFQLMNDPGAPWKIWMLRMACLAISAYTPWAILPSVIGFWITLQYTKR
Target sequence (P06935 1502-1679 limits assumed): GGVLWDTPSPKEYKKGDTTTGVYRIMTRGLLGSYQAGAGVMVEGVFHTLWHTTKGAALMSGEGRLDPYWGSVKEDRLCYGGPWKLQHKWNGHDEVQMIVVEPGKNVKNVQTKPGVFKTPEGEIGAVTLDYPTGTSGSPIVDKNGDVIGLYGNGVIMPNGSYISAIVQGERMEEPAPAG
Hsc70 ATP site – Hsc70 inhibitors, probe displacement, primary screen, biochemical, fluorescence polarization (AID 568). Hsc70 fluorescence polarization, probe displacement; higher % means a stronger effect; strong numbers were not always called active. one-dose displacement, % at 20 µM; IC50 in µM for titrated hits. 83,000 tested, under 10 active;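 active means displacement above 50% without optical interference and an IC50 on retest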;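 further: ATPase domain with a fluorescein-tagged ATP probe; 0% = vehicle and 100% = excess ADP; read after one hour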
MT1-MMP promoter – inhibitors of MT1-MMP promoter transcription, cell-based, luciferase reporter, luminescence (AID 618); MT1-MMP promoter luciferase reporter cells, luminescence; calls from a first round at 10 µM; hits with a dose series show EC50 in µM; 87,000 tested, 0.62% active;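 active means over half of the reporter light lost at 10 µM or EC50 under 50 µM; inactive means the rest and hits that failed the dose series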;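 further: actives suppress MT1-MMP promoter-driven transcription so potencies describe inhibitors; HT1080 fibrosarcoma cells; overnight exposure; toxic or luciferase-blocking compounds were not removed from the actives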
Active calls of the source: *; i = inactive; . = no result given; + = active, no number.

Sample of the layout:
molecule	WNV protease inh	Hsc70 ATP site	MT1-MMP promoter
COCCNCCOc1ccccc1-c1ccccc1	.	-2.6%	i
NC(=O)/C(=N\O)c1ccccc1	-0.39	2.6%	i

The listing, from the first entry:
molecule	WNV protease inh	Hsc70 ATP site	MT1-MMP promoter
COCCNCCOc1ccccc1-c1ccccc1	.	-2.6%	i
NC(=O)/C(=N\O)c1ccccc1	-0.39	2.6%	i
O=C(c1ccco1)N1CCN(c2ncnc3c2cnn3-c2ccccc2)CC1	-0.23	-5.0%	i
COC(=O)CN(c1ccccc1)S(=O)(=O)c1ccccc1	-0.76	-0.4%	i
COC(=O)c1[nH]c2cccc(OC)c2c1NC(=O)CCN1CCC(C)CC1	-1.4	-2.2%	i
CCc1ccc(NC(=O)N(C2CCC(C)CC2)C2CCN(C(C)=O)CC2)cc1 (centres undefined)	-0.11	-1.1%	i
CCCn1nnnc1SCC(=O)NCc1ccc(OC)cc1	2.5	2.6%	i
CCOc1cccc(C2C(C#N)=C(N)Oc3cc(C)oc(=O)c32)c1OCC (centres undefined)	-0.22	6.9%	i
CCOC(=O)N1CCN(C(=O)COc2ccccc2Cl)CC1	0.9	-0.7%	i
O=c1[nH]c2ccsc2c(=O)n1-c1ccc(F)c(Cl)c1	-0.95	1.2%	i
N#Cc1cn(-c2ccccc2)nc1-c1ccc2c(c1)OCCO2	-0.34	-1.2%	i
CCCCn1nc(C(=O)NC2=NCCS2)c2ccccc2c1=O	1.1	0.3%	i
O=C(NCc1ccco1)C(c1ccccc1)N(Cc1cccnc1)C(=O)Cn1nnc2ccccc21 (centres undefined)	-0.1	3.1%	i
CN1CCN(S(=O)(=O)c2ccc(N(C)CC(=O)Nc3ccc(F)cc3)nc2)CC1	0.94	-1.6%	i
CC1CCN(C(=O)CN2C(=O)C(C)(C)Oc3ccc(C(=O)NC4CCCC4)cc32)CC1	0.03	2.0%	i
Cc1nc2ccc(NC(=O)c3ccc(Cl)s3)cc2s1	-0.8	-5.8%	i
COc1ccc(OC(C)C(=O)Nc2cccnc2)cc1 (centres undefined)	.	7.8%	i
Cc1ccc(CCNc2ccc3ccccc3c2)cn1	.	-4.2%	i
CCn1cc(CNC(=O)c2cc(Cl)ccc2OC)c(C)n1	-0.17	4.5%	i
COC(=O)C1=C(C)NC2=C(C(=O)CC(C)(C)C2)C1c1cccc(C)n1 (centres undefined)	1.1	1.5%	i
CC(C(=O)NCc1cccnc1)N1C(=O)c2ccccc2C1=O (centres undefined)	-0.4	3.8%	i
C=CCn1c(SCC(=O)Nc2cccc(C(=O)OC)c2)nnc1C(C)NC(=O)c1cccs1 (centres undefined)	-0.65	4.4%	i
COC(=O)c1cccc(NC(=O)CCCOc2cccc(C)c2)c1	.	-3.3%	i
Cc1ccc(S(=O)(=O)N2CCC(C(=O)N3Cc4ccccc4C3)CC2)cc1	-0.61	-1.9%	i
CCCc1nc2oc(C(=O)OCC)c(N)c2c2c1COC(C)(C)C2	1.5	-1.1%	i
Cc1cccc(CS(=O)(=O)Cc2ccc(C(=O)NCCCN3CCCC3)o2)c1	.	3.0%	i
Cc1cc(-n2c(C)cc(C(=O)CN3C(=O)NC4(CCCC4)C3=O)c2C)no1	-0.38	0.5%	i
Cc1c(NC(=O)COC(=O)c2cc3c4ccccc4n(C)c3s2)c(=O)n(-c2ccccc2)n1C	0.49	-3.2%	i
CCC(=O)N1CCc2cc(Br)cc(S(=O)(=O)NCC3CCCN3CC)c21 (centres undefined)	-0.16	5.1%	i
CCCCc1nc2ccccc2c(=O)n1NC(=O)c1c(O)c2cccc3c2n(c1=O)CC3	1.3	-1.3%	i
O=C(NCCCn1ccnc1)c1cc(S(=O)(=O)N2CCOCC2)c(Cl)cc1Cl	0.71	5.9%	i
CCOc1ccc(N2CC(C(=O)Nc3ncccc3C)CC2=O)cc1 (centres undefined)	.	2.3%	i
O=S(=O)(c1cccc(-c2nc3ccccc3s2)c1)N1CCOCC1	.	4.0%	i
CCCCCCCCCCNC(=O)CCn1[nH]c(=O)c2ccccc2c1=O	.	3.0%	i
CC(C)N(C(=O)CSc1nnc(NC(=O)C2CCC2)s1)C(C)C	0.36	-1.3%	i
COc1ccc(-c2ccc(-c3nnc(-c4cc(OC)ccc4OC)o3)cc2)cc1	1.1	-9.1%	i
O=C(NCc1cn2ccccc2n1)c1ccc2c(c1)OCO2	.	2.6%	i
CCC(=O)Nc1ccc(S(=O)(=O)N2CCOCC2)cc1	.	0.0%	i
Nc1cccc(Cl)c1N1CCOCC1	.	-3.2%	i
Nc1ccc2nc(-c3cc(Cl)c(N)c(Cl)c3)[nH]c2c1	.	-6.3%	i

A second format for some results above:
COC(=O)c1cccc(NC(=O)CCCOc2cccc(C)c2)c1
- WNV protease inh: .
- Hsc70 ATP site: -3.3%
- MT1-MMP promoter: i

O=S(=O)(c1cccc(-c2nc3ccccc3s2)c1)N1CCOCC1
- WNV protease inh: .
- Hsc70 ATP site: 4.0%
- MT1-MMP promoter: i

CCCc1nc2oc(C(=O)OCC)c(N)c2c2c1COC(C)(C)C2
- WNV protease inh: 1.5
- Hsc70 ATP site: -1.1%
- MT1-MMP promoter: i

Next entries.
molecule	WNV protease inh	Hsc70 ATP site	MT1-MMP promoter
Cc1ccc(-c2nnn(CC(=O)N(c3cccc(O)c3)C(C(=O)NC(C)(C)C)c3cccs3)n2)o1 (centres undefined)	-0.87	1.4%	i
CCCCn1c(CN2CCOCC2)nc2c1c(=O)n(C)c(=O)n2C	1.2	-1.0%	i
CN(C)CC(C(=O)c1ccccc1)c1ccccc1 (centres undefined)	-0.21	-4.0%	+
COC(=O)c1cn(NC(=O)c2cccc(N(C)C)c2)c(=O)c2ccccc12	0.66	-1.0%	i
N#CC1=C2SCN(c3ccccc3)CN2C(=O)CC1c1cccs1 (centres undefined)	-0.44	-7.3%	i
O=C(c1cc(-c2ccccc2)on1)N1CCCC1	-0.19	0.4%	i
CC1(CC(=O)O)C(=O)N=C2C=CC=CN21 (centres undefined)	-1.2	8.7%	i
O=C(CCC1CCCC1)N1CCN(S(=O)(=O)Cc2ccccc2)CC1	0.01	7.9%	i
CCC(O)CNc1nc(SC)nc2sc3c(c12)CCN(C)C3 (centres undefined)	0.24	11%	i
O=C(CCN1CCOCC1)Nc1cccc(Br)c1	-0.76	0.2%	i
CCOC(=O)c1cc(-c2cccnc2)nn1-c1ccccn1	0.44	2.2%	i
COc1ccccc1-c1cc(C(=O)N2CCCCC2)no1	0.73	-0.3%	i
O=C(COc1ccc(Br)cc1CO)Nc1ccccc1F	-1.1	-0.5%	i
CCN1CCN(C(CNC(=O)c2ccc3c(c2)OCO3)c2cccnc2)CC1 (centres undefined)	0.69	-4.1%	i
CCOC(=O)c1sc(NC(=O)C2CC2)cc1C	0.03	1.6%	i
COC(=O)c1ccc(NC(=O)C2CCN(C(=O)c3cc(OC)c(OC)c(OC)c3)CC2)cc1	.	1.3%	i
COc1cccc(C(=O)Nc2ccc(F)cc2F)c1	.	4.6%	i
Cc1ccc(-n2ncc3c(=O)n(CC(=O)OCc4ccccc4)cnc32)cc1	1.6	0.2%	i
CN1CCN(C(=O)C2(NC(=O)NCc3ccccc3)CCCCC2)CC1	.	4.4%	i
CCCCS/C(=C(/C#N)C(N)=O)c1cc2c([nH]1)CCCC2	-0.71	-5.3%	i

(next part)
Order of values: WNV protease inh, Hsc70 ATP site, MT1-MMP promoter
> COc1ccccc1CC(=O)Nc1ccccc1C(=O)O
 : ., -1.7%, i
> COc1ccc(OC)c(S(=O)(=O)NCc2ccccc2)c1
 : 0.31, 5.2%, i
> CCSC1(SCC)N=C(N)C2(C#N)C(c3ccccc3)NC3=C(CCC3)C12C#N (centres undefined)
 : -1, -0.6%, i
> CC(C)CCn1c(SCc2ccc(Cl)cc2)nc2c1c(=O)[nH]c(=O)n2C
 : 1.2, -8.0%, i
> COn1c(=O)c(-c2cccs2)[n+]([O-])c2ccccc21
 : ., 3.2%, i
> COC(=O)CSc1nc2sc3c(c2c(=O)n1-c1ccccc1)CCN(C)C3
 : -0.87, 2.1%, i
> O=C(Nc1c(C(=O)O)oc2ccc(Br)cc12)c1ccccc1
 : 0.57, 2.5%, i
> CCOc1ncccc1C(=O)Nc1ccccc1C(=O)NCc1ccc2c(c1)OCO2
 : 0.23, -9.7%, i
> N/C(=N\OC(=O)C(c1ccccc1)c1ccccc1)c1ccccn1
 : ., 0.6%, i
> O=C(COC(=O)c1ccc(N2CCCC2=O)cc1)NCc1ccco1
 : -0.69, -1.9%, i
> CCOc1ccc(Cn2nnc(C(=O)NCCc3ccccc3)c2N)cc1
 : -0.61, 1.9%, i
> Cc1ccc2[nH]c(=O)c3cc(C(=O)NCCN4CCN(C)CC4)sc3c2c1
 : 0.29, 1.0%, i
> CCOC(=O)CSc1ncnc2c1cnn2-c1ccc(Cl)cc1
 : -1.1, -4.6%, i
> O=c1cc(-c2ccc3c(c2)OCO3)oc2ccccc12
 : -1.2, -0.1%, i
> COC(=O)c1ccc(C2c3c(oc4ccccc4c3=O)C(=O)N2CCCN2CCOCC2)cc1 (centres undefined)
 : -0.59, -1.3%, i
> CCOc1cc(S(=O)(=O)NCc2ccc3c(c2)OCO3)c(C)cc1C
 : 1.2, 4.0%, i
> Cn1c(CCNC(=O)c2ccc(F)cc2)nc2ccccc21
 : -0.22, -5.3%, i
> COC(=O)c1ccc(CSc2nnnn2C)o1
 : 0.07, 6.9%, i
> CCCCN=c1sc(C(=O)OC)cc(=O)n1CCCC
 : 0.61, -5.6%, i
> COc1ccc(NC(=O)CC2Oc3ccc(C)cc3NC2=O)cc1 (centres undefined)
 : 0.37, 6.8%, i
> COC(=O)c1c(C)[nH]c(C(=O)CSc2nnnn2-c2ccccc2)c1C
 : ., -3.3%, i
> Cc1ccc(N2OC3C(=O)NC(=O)C3C2c2ccco2)cc1 (centres undefined)
 : 1, 4.8%, i
> O=C(Nc1nnc(N2CCCCCC2)s1)c1cc(-c2ccc(Br)cc2)on1
 : -1.6, -0.8%, i
> COc1cccc(NC(=O)c2cccc(OC)c2OC)c1
 : -0.76, -0.8%, i
> COCCn1cnc2c(c1=O)c1nc3ccccc3nc1n2/N=C/c1cccc(OC)c1OC
 : -0.73, 0.0%, i
> Cc1cccc(OCCCCCNCCO)c1
 : -0.46, 9.9%, i
> O=C(Cc1coc2ccc3ccccc3c12)N1CCc2ccccc21
 : ., 1.7%, i
> Cc1cc(C(F)(F)F)c2c(n1)sc1c(O)cc(=O)[nH]c12
 : ., -1.1%, i
> COc1ccc(OCC(=O)Nc2cccc(-c3nc4ccccc4o3)c2)cc1
 : 1.3, -0.9%, i
> Cc1c(NC(=O)c2cc(=O)[nH]c(=O)[nH]2)c(=O)n(-c2ccccc2)n1C
 : -0.58, -2.6%, i
> CC(C)(C)n1ncc2c(=O)n(Cc3c(F)cccc3Cl)cnc21
 : -0.49, -9.3%, i
> CCN(CC)CCCNC(=O)C1c2ccccc2Oc2ccccc21
 : -1.1, -0.6%, i
> Cc1oc(-c2cccc(Cl)c2)nc1CN1CCC(C(=O)N2CCN(c3ccccc3F)CC2)CC1
 : 0.78, 1.5%, i
> CN1/C(=C\C(=O)c2ccco2)c2ccccc2CC1(C)C
 : -0.13, 6.4%, i
> O=C(NCC(=O)N(Cc1cccs1)C(C(=O)NC1CCCCC1)c1ccncc1)c1ccco1 (centres undefined)
 : ., 0.4%, i
> COC(=O)c1ccccc1NC(=O)c1cc2sccc2n1C
 : -0.74, -1.7%, i
> O=C(Cn1cc(C(F)(F)F)ccc1=O)N1CCN(S(=O)(=O)c2ccc(Cl)cc2)CC1
 : -0.56, 4.6%, i
> CC(C)CCn1nnnc1C(c1ccc(F)cc1)N1CCC(C(N)=O)CC1 (centres undefined)
 : 0.11, -3.5%, i
> O=C(NC1CC2CCC1C2)C1CCN(S(=O)(=O)c2ccc(-c3nn[nH]n3)cc2)CC1 (centres undefined)
 : -1.2, 1.7%, i
> CC1(C)CC(=O)C2=C(C1)N(Cc1cccnc1)C(=O)C2(NC(=O)c1ccc(F)cc1)C(F)(F)F (centres undefined)
 : ., -3.8%, i
> CC1CCN(CCCNC(=O)COc2cc(=O)n(C)c3ccccc23)CC1
 : -1.1, 0.8%, i
> COc1ccc(N2CCN(C(=O)CCCOc3cc(=O)n(C)c4ccccc34)CC2)cc1
 : 1.5, 5.7%, i
> CC(=O)Oc1ccc(N(C(C)=O)S(=O)(=O)c2cccs2)cc1
 : 0.04, -4.0%, i
> Cc1ccc(CN2CCN(c3ccccn3)CC2)s1
 : ., 1.3%, i
> CN(Cc1nc(-c2cccnc2)no1)S(=O)(=O)c1ccc(Br)cc1
 : -1.4, 1.1%, i
> Clc1ccc2nc(CN3CCCCC3)cn2c1
 : -0.58, 3.9%, i
> COc1ccc(CNC(=O)c2c(O)c3ccccc3n(C)c2=O)cc1OC
 : -0.68, -2.6%, i
> COc1ccc(-c2nc3c(Br)c(N)c(Br)cc3o2)cc1
 : -0.93, -6.4%, i
> Cc1cc(=O)n2c3c(sc2n1)C(=O)N(Cc1ccccc1)C3=O
 : -1.1, 3.1%, i
> CCC1CCCCN1S(=O)(=O)c1ccc(S(=O)(=O)N(Cc2cccs2)C2CC2)cc1 (centres undefined)
 : -0.05, -2.0%, i
